Screening results as filed in PubChem.
NS1 inh: influenza NS1 inhibition. hit rate 0.4% among 270,000. AID 2326. Potency, µM (series often up to 46.1 µM), inactives show at the top dose activity, positive = more growth. S. cerevisiae slowed by influenza A NS1, growth recovery by OD600; further: actives are rising curves; nearly all actives have a fitted effect of over 50% in size
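Read-out: OD600 growth recovery of NS1-expressing budding yeast. Cells grown overnight at 30C in -URA glucose medium, washed, resuspended and diluted 1:100 in 2% galactose assay medium, pH 6.0. Same strain lacking NS1 served as positive control.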
SARS PLpro yeast: inhibitors of SARS-CoV papain-like protease in yeast | Potency, µM (titrated, usually from 32.9 µM), without a hit: at the highest dose activity, positive = growth rescue | hit rate 0.19% among 330,000 | S. cerevisiae expressing SARS-CoV PLpro, growth rescue; control for the full effect not named in the record | AID 485353; further: 0% is about no effect; nearly all actives have a fitted effect of over 55% in size; growth read by luminescence after 48 h
The depositor's hits bear a star; ? = inconclusive; & = joins results of further samples; [ ] = remark or other dose. The call rests on the fitted dose curve; in most records, active means well fitted rising curve with a large enough effect; inconclusive means small, poorly fitted or top-dose-only effect; inactive means no such curve, though single readings can be large or run the other way. Potency means the concentration at half of the fitted maximal effect.

Every second line gives: NS1 inh	SARS PLpro yeast
> Cc1c(C2C(C#N)=C(N)N(c3cccc([N+](=O)[O-])c3)C3=C2C(=O)CCC3)cnn1C (stereo not given)
 : 8%	0%
> COc1ccc(/C(C#N)=C/c2cccnc2)cc1
 : -4%	-2%
> C#CCOCCOCCOCCNc1nc(N2CCN(C(=O)[C@H](CCC(=O)O)n3cc(C(N)Cc4ccc(O)cc4)nn3)CC2)nc(N2CCN(C(=O)[C@H](Cc3cc4ccccc4[nH]3)n3cc(C(N)CC(C)C)nn3)CC2)n1 (stereo not given in full)
 : 8%	-3%
> O=C(Nc1ccc2ccccc2c1)C(=O)C1C(=O)Nc2ccccc21 (stereo not given)
 : 1%	-1%
> O=[N+]([O-])c1ccc(-c2nnc(S)n2-c2ccccc2)cc1
 : 10%	-3%
> CCN1C(=O)/C(=C\c2ccc(-c3cccc(C(=O)OC)c3)o2)SC1=Nc1ccc(C(=O)O)cc1
 : 16%	-5%
> C#CCOCCOCCOCCNc1nc(N2CCN(C(=O)[C@H](CCCCN)n3cc(C(N)CO)nn3)CC2)nc(N2CCN(C(=O)[C@H](CCC(=O)O)n3cc(C(N)[C@H](C)CC)nn3)CC2)n1 (stereo not given in full)
 : -2%	0%
> O=C(N/N=C/c1ccc2c(c1)OCO2)C(=O)Nc1ccc2ccccc2c1
 : 3%	1%
> COc1ccc(-c2c(C)c3ccc(OCC(C)=O)cc3oc2=O)cc1
 : -5%	2%
> CCCCn1c(C)cc2c(c1=O)[C@H]1O[C@](CCCC)(Cc3c1ccc1ccccc31)O2
 : -3%	1%[6.58 µM]
> O=C(c1ccc(Cn2c(=S)[nH]c3cc4c(cc3c2=O)OCO4)cc1)N1CCN(c2ncccn2)CC1
 : 15%	2%
> CCOCC(=O)Nc1cc(C(=O)Nc2cc(C)cc(C)c2)ccc1Cl
 : -3%	0%
> COc1ccc(-c2csc(NC(=O)/C(N=Nc3ccccc3)=C(\C)O)n2)cc1
 : 3%	-2%
> Cc1nc2ccc(P(=O)(O)O)cc2s1
 : 6%	-2%
> O=c1oc2ccccc2c2c1C1O[C@](c3ccsc3)(Cc3ccccc31)O2
 : 13%	1%[6.58 µM]
> COc1ccc(-n2c(=O)c3c4c(sc3n(Cc3cccc(F)c3)c2=O)CN(C(C)=O)CC4)c(OC)c1
 : 12%	0%
> CC(=O)Nc1ccc(/C(C)=N\NC(=O)c2ccc(-c3ccccc3)cc2)cc1
 : 18%	-1%
> CCn1cc(C(=O)NC2CCCc3c2cnn3-c2cccc(C)c2C)cn1 (stereo not given)
 : 9%	1%
> Cc1ccc2nc3c(cc(C(=O)NC4CCCC4)c(=N)n3CCCn3ccnc3)c(=O)n2c1
 : 2%	-1%
> COc1cc(/C=C/c2ccc3cccc(O)c3n2)c(Br)cc1O
 : -8%	-9%
> COc1cc2c(cc1OC)C1O[C@](c3ccsc3)(C2)Oc2c1c(=O)oc1ccc(F)cc21
 : ?	5%[6.58 µM]
> CCCOC(=O)c1ccc(Cl)c(NC(=O)c2cccnc2)c1
 : -5%	-1%
> c1ccc(COCCC2CO2)cc1 (stereo not given)
 : 8%	4%
> COC(=O)C1(C)Cc2cc(OC(C)=O)c(OC(C)=O)cc2N1 (stereo not given)
 : 2%	1%
> COc1ccc(NC(=O)CN2C(=O)S/C(=C/c3cccn3-c3ccc(C(=O)O)cc3)C2=O)cc1
 : 34%	5%
> C#CCOCCOCCOCCNc1nc(N2CCN(C(=O)[C@H](CCCCN)n3cc([C@@H](N)C(C)CC)nn3)CC2)nc(N2CCN(C(=O)[C@H](CCCCN)n3cc([C@@H](N)CO)nn3)CC2)n1 (stereo not given in full)
 : 2%	0%
> C[C@@H]1C[C@@H]2OC(=O)[C@]3(C)[C@H]2[C@@H](OC3(C)O)[C@]2(C)C(=O)CC[C@H]12 (stereo not given in full)
 : -2%	0%
> Cc1ccc(NC(=O)c2cc3c(=O)oc4ccc(C)cc4c3s2)nc1
 : 3%	1%
> Cc1cc(C)c(NC(=O)c2sc3nc(C)[nH]c(=O)c3c2C)c(C)c1
 : -2%	-1%
> COCCNc1nnnc2c1sc1nc(N3CCOCC3)c3c(c12)CCCC3
 : -1%	0%
> COc1ccccc1C(C)NS(=O)(=O)c1cccs1 (stereo not given)
 : 23%	5%
> O=C(c1cnc2n(c1=O)CCS2)N1CCN(c2ccccc2Cl)CC1
 : 0%	28%
> COc1ccc(N(C(=O)c2ccncc2)S(=O)(=O)c2ccc(F)cc2)cc1
 : -72%	-3%
> N=C(N)N1CCN(Cc2ccccc2)CC1
 : -4%	0%
> O=C(NCCO)Nc1ccc2nc(-c3ccco3)c(-c3ccco3)nc2c1
 : 11%	-1%
> CCOC(=O)c1c(NC(=O)N/N=C/c2ccc(O)c(OC)c2)sc(C(C)=O)c1C
 : 13%	0%
> C=C1SC(=Nc2ccccc2Cl)N(C(=O)c2sc3ccccc3c2Cl)C12CCCCC2
 : -2%	-1%
> CCc1nc(SCC(=O)N2CCN(c3ccccc3)CC2)c2c(=O)n(C)c(=O)n(C)c2n1
 : -3%	1%
> COc1cc2c(cc1OC)C1O[C@](c3ccsc3)(C2)OC2=C1C(=O)OC1(CCCCC1)C2
 : 5%	-4%[6.58 µM]
> CCCC[C@]12Cc3cc(OC)c(OC)cc3C(O1)C1=C(O2)C(=O)c2ccccc2C1=O
 : 11%	-2%[6.58 µM]
> COc1c(O)cc2c(c1O)C(=O)CC(c1ccccc1)O2 (stereo not given)
 : -48%	-4%
> CCCCn1c(C)cc2c(c1=O)C1O[C@](c3ccc(OC)cc3)(Cc3cc(OC)c(OC)cc31)O2
 : 10%	6%[6.58 µM]
> c1ccc2c(NCCCN3CCOCC3)c3ccccc3nc2c1
 : -5%	-4%
> Cc1ccc2c(c1)c1c(n2CC(O)CN2CCOCC2)CCCC1 (stereo not given)
 : 13%	3%
> O=c1oc2ccccc2c2c1C1O[C@](c3ccsc3)(Cc3c1ccc1ccccc31)O2
 : 12%	-12%[6.58 µM]
> O=c1c2c3c(sc2nc(N2CCNCC2)n1-c1cccc(Cl)c1)CCCCC3
 : -2%	1%
> CCCCOc1ccc(C(=O)Nc2ccc(S(=O)(=O)Nc3onc(C)c3C)cc2)cc1
 : -13%	0%
> COc1ccc2c3c(c(=O)oc2c1)C1O[C@](c2ccsc2)(Cc2cc(C#N)ccc21)O3
 : 23%	8%[6.58 µM]
> CCOC(=O)N1CCN(c2nc(N(c3ccccc3)c3ccccc3)nc(-n3ccnc3)n2)CC1
 : -62%&-2%	0%
> O=C(NC(=S)N1CCN(c2ccccc2)CC1)c1ccccc1
 : 17%	12%
> Cc1ccccc1C(C(=O)NC1CCCC1)N(C(=O)CNC(=O)c1ccco1)c1cccnc1 (stereo not given)
 : -1%	0%
> O=C1CC(c2ccccc2Br)c2cc3c(cc2N1)CCC3 (stereo not given)
 : 3%	0%
> Cc1ccc(-c2nc(SCC(=O)Nc3ccccc3OC(F)F)c3c(C)c(C(=O)O)sc3n2)cc1
 : -1%	-2%
> O=C(N[C@H](C(=O)O)c1ccccc1)C1CCC(Cn2nnc3ccccc3c2=O)CC1 (stereo not given in full)
 : -2%	0%
> O=C1CCCC/C1=N\Nc1ccc(C2CCCCC2)cc1
 : -5%	0%
> Cc1ccc(C(=O)N[C@@H](C)CN2C3=NC[C@H](C)N3C[C@H]2Cc2ccc(O)cc2)cc1Br
 : -8%	-2%
> COc1ccc2no[n+]([O-])c2c1
 : -105%	-3%
> CC(Oc1ccc(Br)cc1Br)C(=O)NC1CCCC1 (stereo not given)
 : -6%	0%
> NNC(=O)c1nn(-c2ccccc2)cc1O
 : 6%	10µM*
> C#CCOCCOCCOCCNc1nc(N2CCN(C(=O)[C@H]([C@@H](C)CC)n3cc([C@@H](N)CC(C)C)nn3)CC2)nc(N2CCN(C(=O)[C@H](Cc3cc4ccccc4[nH]3)n3cc([C@@H](N)C(C)CC)nn3)CC2)n1 (stereo not given in full)
 : -8%	-3%

Part of the list above in order of number of heavy atoms, low to high:
Every second line gives: NS1 inh	SARS PLpro yeast
> NNC(=O)c1nn(-c2ccccc2)cc1O
 : 6%	10µM*
> c1ccc2c(NCCCN3CCOCC3)c3ccccc3nc2c1
 : -5%	-4%
> C=C1SC(=Nc2ccccc2Cl)N(C(=O)c2sc3ccccc3c2Cl)C12CCCCC2
 : -2%	-1%

Taken from above.
Entry for CCCCn1c(C)cc2c(c1=O)C1O[C@](c3ccc(OC)cc3)(Cc3cc(OC)c(OC)cc31)O2 under SARS PLpro yeast: 6%[6.58 µM]
Entry for O=C(NC(=S)N1CCN(c2ccccc2)CC1)c1ccccc1 under NS1 inh: 17%
Entry for c1ccc2c(NCCCN3CCOCC3)c3ccccc3nc2c1 under SARS PLpro yeast: -4%
Entry for C#CCOCCOCCOCCNc1nc(N2CCN(C(=O)[C@H]([C@@H](C)CC)n3cc([C@@H](N)CC(C)C)nn3)CC2)nc(N2CCN(C(=O)[C@H](Cc3cc4ccccc4[nH]3)n3cc([C@@H](N)C(C)CC)nn3)CC2)n1 (stereo not given in full) under NS1 inh: -8%
Entry for NNC(=O)c1nn(-c2ccccc2)cc1O under SARS PLpro yeast: 10µM*
Entry for O=C(N[C@H](C(=O)O)c1ccccc1)C1CCC(Cn2nnc3ccccc3c2=O)CC1 (stereo not given in full) under SARS PLpro yeast: 0%
Entry for CCCCOc1ccc(C(=O)Nc2ccc(S(=O)(=O)Nc3onc(C)c3C)cc2)cc1 under NS1 inh: -13%

(next part)
Every second line gives: NS1 inh	SARS PLpro yeast
> C#CCOCCOCCOCCNc1nc(N2CCN(C(=O)[C@H](CCCCN)n3cc([C@@H](N)CO)nn3)CC2)nc(N2CCN(C(=O)[C@H](Cc3cc4ccccc4[nH]3)n3cc([C@@H](N)CC(C)C)nn3)CC2)n1
 : 7%	0%
> CCOc1ccccc1NC(=O)c1ccc([N+](=O)[O-])cc1
 : -2%	0%
> C=CCN(CC#CCOc1ccccc1OC)CC=C
 : 4%	1%
> CCC(C)C(NC(=O)CCCNC(=O)CCC(=O)OC1O[C@H]2OC3(C)CC[C@H]4[C@H](C)CCC(C1C)C24OO3)C(=O)O (stereo not given in full)
 : -65%	-7%
> COC(=O)C1=C(C)N(Cc2ccccc2)C(=NCc2ccc(OC)cc2)N[C@H]1c1ccc(Br)cc1
 : 12%	3%
> O=C(N/N=C/c1cccnc1)c1ccccc1OCc1ccc(Cl)cc1
 : -3%	-9%
> CC(C)Nc1nc(NC(C)C)nc(N(C#N)C(C)C(=O)N(C)C)n1 (stereo not given)
 : 2%	0%
> CC(C)CNC(=O)c1ccc(Cl)c(NC(=O)COc2ccccc2)c1
 : 0%	0%
> COc1ccc(CN(C)c2nc(-c3cccnc3)nc3ccccc23)cc1OC
 : 3%	-1%
> NC(=O)c1ccc(N=Nc2c(O)c3ccccc3[nH]c2=O)cc1
 : -3%	22%
> CCCCCOc1ccc(N2C(=O)C(C)CNC2=S)cc1 (stereo not given)
 : 8%	-3%
> Cc1cc(C(=O)O)ccc1-c1ccc(/C=C2\SC(=O)N(CC(=O)Nc3ccc4c(c3)OCO4)C2=O)o1
 : 8%	1%
> CN(C)CCCN(C(=O)c1ccc2c(c1)OCCO2)c1nc2ccc(Cl)cc2s1
 : -7%	-1%
> Cc1ccc(Cn2c(=N)c(C#N)cc3c(=O)n4cccc(C)c4nc32)cc1
 : 0%	0%
> COC(=O)c1ccc(NCC(=O)N2CCCCCC2)cc1
 : 3%	-7%
> Cc1ccc2c(C(=O)CN3CCC(C(N)=O)CC3)c(C)[nH]c2c1
 : 0%	0%
> CCN(CC)C(=O)CSc1ncnc2c(-c3ccc(OC)cc3)nsc12
 : -3%	0%
> N#C/C(=C\c1cc(Cl)c(OCc2ccc(Cl)cc2)c(Cl)c1)C(N)=O
 : -31%	-1%
> COc1cccc(C(=O)Nc2ccncc2)c1
 : 5%	-3%
> CC(=O)Nc1ccc2nc(NC(=O)c3ccc([N+](=O)[O-])s3)sc2c1
 : 1%	1%
> Cc1ccc(NCc2ccc(C)s2)cc1
 : 7%	1%
> O=C(COc1ccc(Cl)cc1Cl)NC(=S)Nc1ccccc1C(=O)O
 : -8%	-1%
> O=c1[nH]c2ccccc2c(O)c1-c1cc2ccccc2oc1=O
 : 1%	-2%
> Cc1ccc(COC(=O)c2cc([N+](=O)[O-])ccc2N2CCOCC2)cc1
 : 8%	-12%
> Cc1c(O)nc2sc3ccccc3n2c1=O
 : -1%	0%
> O=C(C1=C(O)C(=O)N(CCCn2ccnc2)C1c1ccc(F)cc1)c1ccco1 (stereo not given)
 : 2%	3%
> O=C1Nc2ccc(C(F)(F)F)cc2N2CCCC12 (stereo not given)
 : 5%	3%
> O=[N+]([O-])c1cc(F)c(N2CCCC2)cc1N1CCNCC1
 : 3%	0%
> CCCCC[C@]12Cc3cc(OC)c(OC)cc3C(O1)c1c(cc(C)n(-c3ccccc3)c1=O)O2
 : 14%	9%[6.58 µM]
> COCCn1c(N/N=C(C)/C=C/c2ccccc2)nc2c1c(=O)[nH]c(=O)n2C
 : -1%	0%
> CCn1nc(C)cc1C(=O)N1CCCC(N2CCN(c3cccc(Cl)c3)CC2)C1 (stereo not given)
 : -22%	-1%
> Clc1ccc(-c2n[nH]c3c2Cc2ccccc2-3)cc1Cl
 : 5%	3%
> COc1ccccc1OCC(=O)N/N=C/c1c(O)ccc2ccccc12
 : -18%	?
> COc1ccc([C@]23Cc4cc(OC)c(OC)cc4C(O2)c2c(c4ccccc4oc2=O)O3)cc1
 : 9%	-9%[6.58 µM]
> O=C(N/N=C(\c1ccccc1)c1cccnc1)c1cc(O)ccc1O
 : 1%	2%

Single records, from the list above. Screens in order: NS1 inh | SARS PLpro yeast
COc1ccc([C@]23Cc4cc(OC)c(OC)cc4C(O2)c2c(c4ccccc4oc2=O)O3)cc1 is entered as 9% | -9%[6.58 µM]
COc1ccccc1OCC(=O)N/N=C/c1c(O)ccc2ccccc12 is entered as -18% | ?

Some of the compounds tested; count on the stated rates, not on these rows.
